Ecoli rRNA inh: inhibitors of bacterial rRNA selective over humanized ribosomes; E. coli WT GFP vs humanized-ribosome RFP mutants, fluorescence, 24 h; stronger effect = lower value; DMSO median 0, no signal -100; GFP signal change (wild-type ribosome), % (concentration not given with the values); 1.6% of 350,000 active; AID 720706;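 active means significant combined selectivity score with lowered wild-type GFP, culture density cut under 30%, mutant RFP and density less affected; inactive means any of these conditions unmet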; further: one replicate is shown; some compounds called inactive have numbers as strong as hits
Ecoli rRNA inh OD600: recorded beside Ecoli rRNA inh, whose call it bears; OD600 change, %; measured here: OD600 growth;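 optical density of the mix in the first replicate; 0 = DMSO median and -100 = no signal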
Ecoli rRNA inh RFP: recorded beside Ecoli rRNA inh, whose call it bears; RFP signal change, %; measured here: RFP humanized mutant strains;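 first replicate; 0 = DMSO median and -100 = no signal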
* = called active by the depositor; & = joins results of further samples.

Ecoli rRNA inh,Ecoli rRNA inh OD600,Ecoli rRNA inh RFP,mol
0,-5,8.6,COc1cccc(-c2ccc([C@@H]3[C@@H](CO)N4C(=O)CN(C(=O)C5CCC5)C[C@@H]34)cc2)c1
-1,9,-0.6,Cc1noc(C)c1S(=O)(=O)Nc1ccc2c(c1)C(=O)N([C@@H](C)CO)C[C@@H](C)[C@@H](CN(C)C(=O)Nc1ccc(F)cc1)O2
2,3,-3.0,CCC(=O)N1C[C@H]2[C@@H](c3ccccc31)[C@H](CO)N2C(=O)Nc1ccccc1F
6,11,-0.1,C[C@@H]1CN([C@H](C)CO)C(=O)c2cccc(NS(=O)(=O)c3ccccc3)c2O[C@@H]1CN(C)C
2,-1,3.1,COc1ccccc1S(=O)(=O)N(C)C[C@@H]1OCc2cnnn2CCCC(=O)N([C@@H](C)CO)C[C@@H]1C
-2,3,0.9,COc1ccc(-c2ccccc2C2Cc3nnccc3CN2)cc1 (stereo unspecified)
-4,-19,-2.3,COc1ccc(NC(=O)Nc2cccc3c2O[C@@H](CN(C)S(=O)(=O)c2ccc(F)cc2)[C@@H](C)CN([C@H](C)CO)C3=O)cc1
-8,-18,-1.4,O=C1C(=Cc2cccc(Cl)c2)CCc2ccccc21
14,24,0.1,Nn1c(SCC(=O)NC2CCCC2)nnc1C(F)(F)F
5,7,-5.4,O=S1(=O)CC(N2CCCCC2)CN1C1CCCCC1 (stereo unspecified)
8,18,-0.5,C[C@H]1CN([C@@H](C)CO)C(=O)c2cc(-c3cccnc3)cnc2O[C@H]1CN(C)C(=O)c1cccc(F)c1
1,8,-2.3,Nc1ccn([C@@H]2O[C@H](CNCc3ccc(Oc4cc(-n5cccn5)ncn4)cc3)[C@@H](O)[C@H]2O)c(=O)n1
-24,-13,3.1,COc1ccc(C2=CN(Cc3ccccc3)C(c3ccc(OC)cc3)CC2=O)cc1 (stereo unspecified)
-1,-1,-0.4,COc1ccc(CN(C)C[C@@H]2OCc3cn(nn3)CCCC(=O)N([C@@H](C)CO)C[C@@H]2C)cc1
-3,-13,12,C[C@@H]1CN([C@@H](C)CO)C(=O)Cc2cc(NS(=O)(=O)c3cn(C)cn3)ccc2O[C@H]1CN(C)Cc1ccc(Cl)c(Cl)c1
-6,-18,-1.2,C[C@H](CO)N1C[C@H](C)[C@H](CN(C)CC2CC2)Oc2ccc(NC(=O)Nc3ccc(C(F)(F)F)cc3)cc2CC1=O
5,5,3.4,O=C(C[C@@H]1C=C[C@H](NC(=O)CN2CCOCC2)[C@H](CO)O1)NCCc1ccncc1
2,-10,7.3,C[C@H]1CN([C@@H](C)CO)C(=O)Cc2cc(NC(=O)C3CCCCC3)ccc2O[C@H]1CN(C)CC1CCCCC1
-2,10,-1.9,CCC(=O)N1CC2(C1)CN(Cc1ccc(OC)cc1)[C@H](CO)c1[nH]c3cc(OC)ccc3c12
0,-4,0.0,CC(C)NC(=O)N1C[C@@H]2[C@H](c3ccccc31)[C@H](CO)N2C(=O)NC(C)C
2,8,-4.8,O=C1N[C@H](c2ccccc2)COCc2cn(nn2)CC[C@H]1Cc1ccc(Cl)cc1
-58,-76,-19,CCNC(=O)C[C@@H]1CC[C@H]2[C@@H](COC[C@H](O)CN2C(=O)Nc2ccc(C(F)(F)F)cc2)O1
0,3,-1.7,CN1C(=O)c2cc(NC(=O)C3CCC3)ccc2OC[C@@H]2O[C@H](CC(=O)NCCc3ccncc3)CC[C@@H]21
-21,-22,17,O=C(c1ccccn1)N1CC[C@@H]2[C@H]1c1cc(C#Cc3ccccc3)ccc1N[C@@H]2CO
3,0,2.8,C[C@H]1CN([C@@H](C)CO)C(=O)Cc2cc(NC(=O)Nc3ccc(C(F)(F)F)cc3)ccc2O[C@H]1CN(C)C(=O)Nc1cccc2ccccc12

Following part:
Ecoli rRNA inh,Ecoli rRNA inh OD600,Ecoli rRNA inh RFP,mol
-37*,-28*,0.4*,O=C(Nc1ccccc1)N1C[C@@H]2[C@H](c3ccccc31)[C@@H](CO)N2C(=O)Cc1ccccn1
5,3,-2.4,Cc1noc(C)c1NC(=O)N(C)C[C@H]1OCCCC[C@@H](C)Oc2ccc(NC(=O)NC3CCCCC3)cc2C(=O)N([C@H](C)CO)C[C@@H]1C
-2,-6,0.6,C[C@H](NC(=O)C[C@@H]1C=C[C@H](NS(=O)(=O)c2cccc(F)c2)[C@@H](CO)O1)c1ccccc1
0&1,5&4,-1.9&-0.7,C[C@@H]1CN([C@@H](C)CO)C(=O)c2cc(NS(C)(=O)=O)ccc2O[C@@H](C)CCCCO[C@H]1CN(C)Cc1ccc2c(c1)OCO2
1,6,-3.4,CO[C@@H]1CC[C@H]2CCOc3ccc(C#N)cc3C(=O)N(C)C[C@@H](C)C(=O)N(C)C[C@@H]1O2
3,11,-1.2,CCCc1cn(CC[C@H]2CC[C@@H](NC(=O)C3CCCC3)[C@H](CO)O2)nn1
2,3,4.8,C[C@H]1CN([C@@H](C)CO)C(=O)Cc2cc(NC(=O)Cc3cn(C)c4ccccc34)ccc2O[C@H]1CN(C)S(=O)(=O)c1cccs1
-7,-15,-1.4,CN1C(=O)c2cc(NC(=O)Nc3cccc(C#N)c3)ccc2OC[C@H]2O[C@@H](CC(=O)Nc3ccc4c(c3)CCC4)CC[C@@H]21
-2,-2,1.2,C[C@H](CO)N1C[C@H](C)[C@H](CN(C)C(=O)Cc2ccccc2)OCCCC[C@H](C)Oc2ccc(NS(=O)(=O)c3ccc(F)cc3)cc2C1=O
-3,2,0.4,Cc1noc(C)c1NC(=O)Nc1cccc2c1O[C@H](CN(C)S(C)(=O)=O)[C@H](C)CN([C@H](C)CO)C2=O
4,2,-1.2,CC(C)NC(=O)N(C)C[C@H]1Oc2ccc(N(C)C)cc2CC(=O)N([C@H](C)CO)C[C@H]1C
-2,5,-2.7,COc1ccc(CCNC(=O)CNC(=O)N2CC(=O)Nc3ccccc32)cc1OC
1,0,0.7,CN1CCN(C(=O)C[C@H]2CC[C@H]3[C@@H](COC[C@H](O)CN3Cc3ccc(Oc4ccccc4)cc3)O2)CC1
-20,-39,9.1,COc1ccc(-c2ccc3c(c2)[C@H]2[C@H](CCN2S(=O)(=O)c2ccccc2F)[C@H](CO)N3)cc1
2&-2,4&-3,3.4&1.8,CCC(=O)N1Cc2cc(C(=O)NCc3cccc(F)c3)nc(-c3cccc(C4=CCCC4)c3)c2[C@H]1CCO
11,11,5.8,CC(=O)N1Cc2cc(C(=O)NCc3cccc(F)c3)nc(-c3cccc(C4=CCCCC4)c3)c2[C@H]1CCO
-1,-7,0.7,CO[C@@H](CN(C)C(=O)c1cnccn1)[C@@H](C)CN([C@@H](C)CO)S(=O)(=O)c1ccc(Cl)cc1
-2,5,3.9,CCN(CC)C(=O)c1csc(COCCO)n1
1,-5,-1.3,C[C@@H]1CN(C)C(=O)Cc2ccccc2O[C@@H]1CN(C)C(=O)OC(C)(C)C
-3,-7,0.6,COc1ccc(S(=O)(=O)N(C)C[C@@H]2Oc3ccc(NC(=O)c4ccncc4)cc3C(=O)N([C@H](C)CO)C[C@H]2C)cc1
1,-7,-2.2,C[C@@H]1CCCCO[C@@H](CN(C)S(C)(=O)=O)[C@H](C)CN([C@H](C)CO)C(=O)c2cc(NC(=O)CCC(F)(F)F)ccc2O1
1,1,-5.0,CN(C)C(=O)c1cccc(-c2ccc3c(c2)[C@@H]2[C@@H](CCN2C(=O)c2ccncc2)[C@H](CO)N3C)c1
6,8,0.1,CC(C)NC(=O)N(C)C[C@H]1Oc2ccc(NC(=O)C3CCCCC3)cc2C(=O)N([C@@H](C)CO)C[C@@H]1C
3,4,-3.0,COc1ccc2c3c([nH]c2c1)[C@H](CO)N(C(=O)c1cccnc1)CC31CCN(C(=O)CN(C)C)CC1
0,-2,2.5,COc1ccc2c3c([nH]c2c1)[C@@H](CO)N(Cc1nccs1)CC31CCN(C(=O)C2CCCC2)CC1

An excerpt of these results, with each value named:
Nc1ccn([C@@H]2O[C@H](CNCc3ccc(Oc4cc(-n5cccn5)ncn4)cc3)[C@@H](O)[C@H]2O)c(=O)n1
  Ecoli rRNA inh: 1
  Ecoli rRNA inh OD600: 8
  Ecoli rRNA inh RFP: -2.3

COc1ccc(C2=CN(Cc3ccccc3)C(c3ccc(OC)cc3)CC2=O)cc1 (stereo unspecified)
  Ecoli rRNA inh: -24
  Ecoli rRNA inh OD600: -13
  Ecoli rRNA inh RFP: 3.1

Next entries follow:
Ecoli rRNA inh,Ecoli rRNA inh OD600,Ecoli rRNA inh RFP,mol
1,0,5.8,CCCC#Cc1cnc2c(c1)C(=O)N([C@@H](C)CO)C[C@H](C)[C@@H](CN(C)Cc1ccc3c(c1)OCO3)O2
2,8,-0.3,Cc1noc(C)c1S(=O)(=O)Nc1ccc2c(c1)C(=O)N([C@H](C)CO)C[C@H](C)[C@H](CN(C)S(C)(=O)=O)OCCCC[C@@H](C)O2
-2,0,-2.9,C[C@@H]1CCCCO[C@H](CN(C)C(=O)Nc2cccc3ccccc23)[C@@H](C)CN([C@H](C)CO)C(=O)c2cc(NS(=O)(=O)c3ccccc3)ccc2O1
-2,-1,-2.4,Cc1noc(C)c1NC(=O)N(C)C[C@H]1Oc2c(NC(=O)Nc3ccc(C(F)(F)F)cc3)cccc2C(=O)N([C@@H](C)CO)C[C@@H]1C
0,0,-0.1,C[C@@H]1CN([C@H](C)CO)C(=O)CCCn2cc(nn2)CO[C@@H]1CN(C)C(=O)Nc1ccnc(N2CCOCC2)c1
-3,6,-2.5,C[C@@H]1CN([C@@H](C)CO)C(=O)c2cc(-c3ccccc3F)cnc2O[C@H]1CN(C)C(=O)NC1CCCCC1
-9,2,8.8,Cc1ccc(S(=O)(=O)N2[C@@H](CO)CO[C@H]2CC(=O)c2cccc3ccccc23)cc1
-58,-75,-7.9,COc1ccc(C#Cc2ccc([C@@H]3[C@H](CO)N4CCCCN(C(=O)Nc5ccccc5F)C[C@@H]34)cc2)cc1
5,7,-0.7,COc1ccccc1NC(=O)COC(=O)Cn1c(C)csc1=O
14,17,-4.8,NC(=O)c1ccc(NCCc2ccco2)cc1
3,15,7.0,COCCCn1cc(CN(C)C2CN(Cc3cn(CCCOC)nn3)S(=O)(=O)C2)nn1 (stereo unspecified)
-3,-7,1.6,C[C@@H]1CN([C@H](C)CO)C(=O)c2cc(NS(=O)(=O)c3cccs3)ccc2O[C@@H](C)CCCCO[C@H]1CN(C)C(=O)NC1CCCCC1
2,4,1.0,COc1ccc(S(=O)(=O)Nc2cccc3c2O[C@H](CN(C)S(=O)(=O)c2ccc(F)cc2)[C@H](C)CN([C@@H](C)CO)C3=O)cc1
-1,-8,-1.4,CO[C@H]1CN(C)C(=O)c2cc(NC(=O)C3CCCCC3)ccc2OC[C@@H](C)N(C(=O)c2ccccc2)C[C@H]1C
1,-10,-0.9,CO[C@H]1CN(C)C(=O)c2cc(NC(=O)C3CC3)ccc2OC[C@H](C)N(C(=O)CN2CCOCC2)C[C@@H]1C
-2,0,0.3,COC(=O)C[C@H]1CC[C@@H]2[C@@H](COc3ccc(NC(=O)NCc4ccccc4)cc3C(=O)N2C)O1
5,10,0.9,O=C(Cc1ccncc1)N1CC[C@H]2[C@H](CO)Nc3ccc(-c4ccccc4)cc3[C@H]21
3,11,0.1,COc1ccc(S(=O)(=O)N(C)C[C@@H]2OCCCC[C@H](C)Oc3ccc(NS(=O)(=O)c4ccc(C)cc4)cc3C(=O)N([C@@H](C)CO)C[C@@H]2C)cc1
-2,12,2.9,COCC#Cc1ccc([C@H]2[C@@H](CO)N3CCCCN(C(=O)COC)C[C@H]23)cc1
-5,-14,-3.2,O=C(NCc1cccnc1)c1cc(C2CCCCN2S(=O)(=O)c2cccc3cccnc23)on1 (stereo unspecified)
1,-5,0.7,Cc1noc(C)c1S(=O)(=O)N(C)C[C@@H]1OCCCC[C@@H](C)Oc2ccc(NS(=O)(=O)c3ccccc3)cc2C(=O)N([C@H](C)CO)C[C@H]1C
-4,-11,1.9,Cc1ccc(S(=O)(=O)N(C)C[C@@H]2Oc3ccc(NC(=O)C4CCCCC4)cc3CC(=O)N([C@@H](C)CO)C[C@H]2C)cc1
-3,-1,-2.3,C[C@@H]1CN([C@@H](C)CO)C(=O)c2cc(NC(=O)C3CCCCC3)ccc2O[C@H]1CN(C)S(=O)(=O)c1ccc(F)cc1
-5,-3,-2.4,O=C(C[C@@H]1C=C[C@@H](NC(=O)NC2CCCCC2)[C@H](CO)O1)NCc1ccccc1
1,12,-1.8,C[C@H]1CN([C@@H](C)CO)C(=O)c2cccc(NS(=O)(=O)c3cccs3)c2O[C@H]1CN(C)S(=O)(=O)c1ccc(F)cc1
16,18,2.6,CC(=O)Oc1ccc(Cn2c(C)c(C(=O)NCc3cccc(C(F)(F)F)c3)sc2=O)cc1

For reference, part of the list above.
Ecoli rRNA inh,Ecoli rRNA inh OD600,Ecoli rRNA inh RFP,mol
1,0,5.8,CCCC#Cc1cnc2c(c1)C(=O)N([C@@H](C)CO)C[C@H](C)[C@@H](CN(C)Cc1ccc3c(c1)OCO3)O2
2,8,-0.3,Cc1noc(C)c1S(=O)(=O)Nc1ccc2c(c1)C(=O)N([C@H](C)CO)C[C@H](C)[C@H](CN(C)S(C)(=O)=O)OCCCC[C@@H](C)O2
-2,0,-2.9,C[C@@H]1CCCCO[C@H](CN(C)C(=O)Nc2cccc3ccccc23)[C@@H](C)CN([C@H](C)CO)C(=O)c2cc(NS(=O)(=O)c3ccccc3)ccc2O1
-2,-1,-2.4,Cc1noc(C)c1NC(=O)N(C)C[C@H]1Oc2c(NC(=O)Nc3ccc(C(F)(F)F)cc3)cccc2C(=O)N([C@@H](C)CO)C[C@@H]1C
0,0,-0.1,C[C@@H]1CN([C@H](C)CO)C(=O)CCCn2cc(nn2)CO[C@@H]1CN(C)C(=O)Nc1ccnc(N2CCOCC2)c1
-3,6,-2.5,C[C@@H]1CN([C@@H](C)CO)C(=O)c2cc(-c3ccccc3F)cnc2O[C@H]1CN(C)C(=O)NC1CCCCC1
-9,2,8.8,Cc1ccc(S(=O)(=O)N2[C@@H](CO)CO[C@H]2CC(=O)c2cccc3ccccc23)cc1

Screening results (PubChem BioAssay)

The list is partial (hit frequency here may not be typical).
